Insulin prom inh – TRM-6 insulin promoter activity inhibition; TRM-6 cells (human fetal islet line), insulin promoter-eGFP reporter, imaging; reporter expression induced with tamoxifen; inhibition, % at 2 µM; 130,000 compounds, 0.9% hits; AID 1273;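 active means inhibition above the mean plus 3 SD, with well images judged a real hit on visual review, cut at about 60% in these data, passing the limit was not always enough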
PKD1 inh – blocks activity of human protein kinase D1 | Q15139 | PKD1 kinase fluorescence polarization assay | inhibition, %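 (about 10 µM by stock and volumes)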 | 200,000 compounds, 0.056% hits | AID 797;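 active means inhibition of 50% or more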;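 further: controls were vehicle for no effect and a reference inhibitor for full effect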
HSV augment – increases HSV replication in cells. HSV replication augmentation in cells, fold increase. maximum fold increase. 220,000 compounds, 0.005% hits. AID 1956;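 active means peak rise of 1.5-fold or more in the series; tested in PC3 cells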;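 further: first round at 10 µM; read as green reporter fluorescence; hits show the peak of a series up to 25 µM; 1 = signal of infected wells without compound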
GALR2 ag – activates the human galanin receptor 2 | activation, %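 (tested at 5 µM)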 | AID 803 | GALR2-expressing cells, agonist activation read-out | 140,000 compounds, 0.48% hits;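 active means above mean plus 3 SD of all compounds, about 5% in these data, not always enough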;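 further: 0% = vehicle buffer wells and 100% = reference agonist at full effect; tested in CHO reporter cells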
Target sequence (O43603 whole entry, looked up): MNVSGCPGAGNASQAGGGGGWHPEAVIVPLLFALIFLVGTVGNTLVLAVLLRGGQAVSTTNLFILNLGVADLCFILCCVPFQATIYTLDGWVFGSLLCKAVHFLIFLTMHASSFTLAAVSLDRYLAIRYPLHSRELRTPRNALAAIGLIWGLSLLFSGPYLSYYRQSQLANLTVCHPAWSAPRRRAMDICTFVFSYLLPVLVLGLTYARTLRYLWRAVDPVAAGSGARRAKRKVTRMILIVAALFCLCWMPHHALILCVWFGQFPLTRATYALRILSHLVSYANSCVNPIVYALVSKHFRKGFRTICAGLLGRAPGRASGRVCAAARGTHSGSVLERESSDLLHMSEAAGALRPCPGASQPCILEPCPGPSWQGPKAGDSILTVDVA
RGS16-Gao – modulates binding between human RGS16 and Galphao | O15492+P09471 | bead-based flow cytometry RGS16-Galphao binding, fluorescence; actives lie on both sides | binding response (% of control), % at 10 µM | 220,000 compounds, 0.38% hits | AID 1441;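 active means below 25% or above 175%, edge rows of some plates excepted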;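 further: Galphao activated by GDP with aluminum fluoride before binding; 100% = wells without compound and 0% = beads without RGS; some results beyond the cut were filed as inactive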
Target sequence (O15492 whole entry, looked up): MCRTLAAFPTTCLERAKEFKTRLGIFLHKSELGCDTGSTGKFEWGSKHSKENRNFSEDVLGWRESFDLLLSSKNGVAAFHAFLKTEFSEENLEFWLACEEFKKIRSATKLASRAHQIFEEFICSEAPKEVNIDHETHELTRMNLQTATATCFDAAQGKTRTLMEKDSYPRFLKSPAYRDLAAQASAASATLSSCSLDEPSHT
Target sequence (P09471 whole entry, looked up): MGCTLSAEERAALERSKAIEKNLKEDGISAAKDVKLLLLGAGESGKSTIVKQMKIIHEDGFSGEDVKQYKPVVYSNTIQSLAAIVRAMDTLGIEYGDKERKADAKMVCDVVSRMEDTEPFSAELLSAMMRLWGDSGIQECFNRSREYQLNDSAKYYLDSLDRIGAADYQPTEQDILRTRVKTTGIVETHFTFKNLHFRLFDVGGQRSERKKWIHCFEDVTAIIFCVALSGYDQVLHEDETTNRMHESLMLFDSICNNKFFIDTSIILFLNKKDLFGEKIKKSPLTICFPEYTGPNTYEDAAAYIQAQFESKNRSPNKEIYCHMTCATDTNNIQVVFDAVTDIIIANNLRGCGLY
Insulin prom inh cell count – second read-out of Insulin prom inh, no call of its own (marks repeat the call); normalized cell count, %; measured here: cell count, toxicity; reference of the scale not given here;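 cells exposed to compound for 48 h; stained nuclei by imaging scaled within each plate; lower means fewer cells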
HSV augment primary fold – further read-out of HSV augment, marked with its call; fold increase; compound at 10 µM; measured here: primary screen fold increase 10 uM; tested in PC3 cells;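 GFP signal in the first replicate; 1 = infected wells without compound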
* = called active by the depositor; i = inactive; . = no result given. This is a random part of the collection. Share with any hit: about 1.2%.

SMILES	Insulin prom inh	Insulin prom inh cell count	PKD1 inh	HSV augment	HSV augment primary fold	GALR2 ag	RGS16-Gao
CC(=O)n1nc(-c2ccc(Cl)cc2)nc1NCc1ccco1	14	135	-4	i	0.83	-0.9	115
O=C(CN1C(=O)c2ccccc2S1(=O)=O)N1CCOCC1	36	119	3	i	0.99	-4.2	104
Cc1ccc(/C=C/c2nc3ccccc3s2)s1	7	109	-5	i	0.79	0.6	90
Cc1ccccc1C(=O)N1CCc2ccccc2C1	-26	124	2	.	.	0.2	97
Cc1ccc(C(=O)C(C)OC(=O)c2cc3cc([N+](=O)[O-])ccc3oc2=O)cc1 (stereo unspecified)	3	59	-8	i	0.88	-2.4	98
COc1ccc(-n2cnc3cc(C(=O)NC4CCCC4)ccc32)cc1	.	.	4	i	1	.	103
COc1cccc(CNC(=O)c2n[nH]c3ccccc23)c1	.	.	-9	i	0.98	.	101
Cc1ccsc1C(=O)N1CCCC(CCC(=O)NCc2ccc(F)c(F)c2)C1 (stereo unspecified)	.	.	-1	i	0.96	.	98
CCOc1ccc(CCNC(=O)c2[nH]c(C)c(C(C)=O)c2C)cc1OCC	7	74	-10	i	0.93	.	.
CCCCc1[nH]c(=O)c(C#N)c2c1CCCC2	-32	104	7	i	0.92	0.1	94
CCCCn1c(O)c(N=NC(=O)c2ccncc2)c2cc(Br)ccc21	-30	106	-7	i	0.99	-0.6	108
Cc1cccc(Nc2nnc(SC/C(O)=C(\C#N)c3nc4ccccc4[nH]3)s2)c1C	-33	154	5	i	1.1	-2.7	83
CCCCCCOC(=O)C(C#N)c1nc2ccccc2nc1N1CCN(CC)CC1 (stereo unspecified)	-3	109	-10	i	0.68	-0.2	104
COc1ccccc1-c1cc(-c2cc(Cl)ccc2O)n[nH]1	.	.	-19	i	0.91	-0.8	93
CC1(C)CC(=NNC(=O)c2n[nH]c3c2CCC3)CC(C)(C)N1	.	.	1	i	0.79	.	103
Cc1ccc(C(=O)NCC(=O)OCC(=O)Nc2ccccc2C#N)s1	.	.	3	i	0.82	.	101
COc1ccc(CC(=O)NC(=S)Nc2ccc(S(=O)(=O)NC(C)(C)C)cc2)cc1	.	.	-4	i	0.96	2.2	105
CCCN(Cc1cc2ccccc2[nH]c1=O)C(=O)c1cccc([N+](=O)[O-])c1	.	.	.	i	0.92	.	103
Cc1c(C(=O)NCC(C)C)sc2nc(-c3ccc(F)cc3)cn12	57	159	-5	i	0.84	0.3	97
Cc1noc(C)c1C(=O)Nc1ccccn1	67	42	-9	i	1	-1.4	110
CC(C)(C)NC(=O)NC(=O)COC(=O)C1CC(=O)N(Cc2ccccc2)C1 (stereo unspecified)	43	95	-1	i	0.9	-1.1	102
O=C(COC(=O)Cc1ccc(S(=O)(=O)N2CCOCC2)s1)NCc1ccccc1	15	86	-2	i	1	-0.8	74
CC1(C)CC(=O)c2cc(C(=O)N3CCCCC3)c(=O)n(-c3ccc(Cl)cc3)c2C1	-164	100	2	.	.	-0.7	.
CCS(=O)(=O)N1Cc2ccccc2CC1C(=O)Nc1ccccc1OC (stereo unspecified)	.	.	.	i	0.9	.	104
COc1cc(C2NC(C(=O)O)CS2)ccc1OCc1ccccc1C#N (stereo unspecified)	.	.	-6	i	0.96	-0.7	98

Record cards, as listed above. Order of values: Insulin prom inh	Insulin prom inh cell count	PKD1 inh	HSV augment	HSV augment primary fold	GALR2 ag	RGS16-Gao
Results for Cc1ccccc1C(=O)N1CCc2ccccc2C1 : -26	124	2	.	.	0.2	97
Results for O=C(CN1C(=O)c2ccccc2S1(=O)=O)N1CCOCC1 : 36	119	3	i	0.99	-4.2	104
Results for CCCCn1c(O)c(N=NC(=O)c2ccncc2)c2cc(Br)ccc21 : -30	106	-7	i	0.99	-0.6	108
Results for Cc1c(C(=O)NCC(C)C)sc2nc(-c3ccc(F)cc3)cn12 : 57	159	-5	i	0.84	0.3	97
Results for CCCCc1[nH]c(=O)c(C#N)c2c1CCCC2 : -32	104	7	i	0.92	0.1	94

(more compounds)
SMILES	Insulin prom inh	Insulin prom inh cell count	PKD1 inh	HSV augment	HSV augment primary fold	GALR2 ag	RGS16-Gao
CCOC(=O)c1sc(C)c(C(N)=O)c1NC1=NCCCCC1	.	.	6	i	1.1	-2.3	100
Cc1ccc(C2/C(=C(/O)c3ccc(Cl)cc3)C(=O)C(=O)N2CC2CCCO2)o1 (stereo unspecified)	11	121	-9	i	0.95	-2.6	100
O=C(N/N=C\c1ccc(O)c([N+](=O)[O-])c1)C1COc2ccccc2O1 (stereo unspecified)	.	.	.	i	1	.	101
CCOC(=O)N1CCN(C(=O)COc2ccc(Cl)cc2)CC1	26	133	2	i	0.86	-1.1	102
O=C(NCCN1CCOCC1)c1ccc2c(c1)ncn2C1CCCCC1	-31	105	10	i	1	-0.5	103
COc1cccc(CN(Cc2ccccc2F)S(=O)(=O)c2ccc(S(=O)(=O)NCc3ccccc3)cc2)c1	.	.	-3	i	0.85	-0.1	112
COC(=O)Nc1ccc(OCC(=O)N2CCOCC2)cc1	15	120	1	.	.	-1.5	107
N#Cc1ccc(-c2ccccc2)nc1Sc1ccc(F)cc1	.	.	-3	i	0.9	-2.2	100
Cc1ccc(-c2cc(-c3ccco3)c(C#N)c(=O)[nH]2)cc1	.	.	.	i	1.3	.	101
CCN(CCCNC(=O)C1CCC(=O)N1C(C)C)c1cccc(C)c1 (stereo unspecified)	-3	136	-8	i	1	-1.1	125
COc1ccc(Cc2c(C)nc(N)nc2Cl)cc1	-42	88	0	i	1.1	-1.2	102
CCC(=O)Nc1cccc(NC(=O)COc2ccc(OC)cc2)c1	3	59	0	i	0.89	-2.1	119
CCC(NS(=O)(=O)c1cnn(CC)c1)c1ccccc1 (stereo unspecified)	.	.	0	i	0.92	.	103
CC(C)(C)N1CC(c2nc3ccccc3n2Cc2ccc(Cl)cc2)CC1=O (stereo unspecified)	-8	92	-3	i	1	-2.8	99
Cc1noc(/C=C/c2nn(C)cc2Cl)c1[N+](=O)[O-]	.	.	.	i	0.66	.	101
CC(C)c1ccc(NC(=O)CNCC(c2ccccc2)N(C)C)cc1 (stereo unspecified)	.	.	.	i	0.84	.	96
O=S1(=O)N=C(Oc2cccc3ccccc23)c2ccccc21	-25	58	1	i	1	-2.9	61
O=C(O)CCC(=O)N1CCc2cc(S(=O)(=O)NC3CCCC3)ccc21	.	.	-1	i	0.84	0.0	100
O=C(Cn1cnc2c(nnn2-c2ccccc2)c1=O)N1CCC(Cc2ccccc2)CC1	.	.	-12	i	0.81	-4.0	91
CCCCCC(C)NC(=O)c1ccoc1C (stereo unspecified)	52	202	0	i	0.92	-1.8	108
FC(F)(F)c1cccc(OCCN2CCN(Cc3ccccc3)CC2)c1	-44	131	3	i	1	-0.3	107
O=C1NC(=O)C2C3c4ccccc4C(c4ccccc43)C12 (stereo unspecified)	6	121	-8	i	0.93	-2.7	98
Cc1c(Cl)cccc1NC(=O)N1CCCN(c2nc(-c3ccccc3)ns2)CC1	.	.	.	i	1	.	98
CCC(C(=O)N1CCc2ccccc2C1)n1nc(C)n2c(cc3occc32)c1=O (stereo unspecified)	-23	116	-9	i	1.1	-1.0	97
O=C(COC(=O)CCCSc1nc2ccccc2[nH]1)NC(=O)NC1CCCC1	41	97	-9	i	1	-2.0	102

Single entries from the list.
Insulin prom inh cell count, CC(=O)n1nc(-c2ccc(Cl)cc2)nc1NCc1ccco1 → 135
Insulin prom inh, Cc1ccc(/C=C/c2nc3ccccc3s2)s1 → 7
RGS16-Gao, Cc1noc(C)c1C(=O)Nc1ccccn1 → 110

Carrying on.
SMILES	Insulin prom inh	Insulin prom inh cell count	PKD1 inh	HSV augment	HSV augment primary fold	GALR2 ag	RGS16-Gao
CCc1ccc(N2CC(C(=O)OCC(=O)Nc3cc(C)on3)CC2=O)cc1 (stereo unspecified)	5	107	4	i	0.83	-0.5	99
CCCN(CC1CC1)S(=O)(=O)c1ccc(S(N)(=O)=O)cc1	.	.	-12	i	0.93	-0.9	105
O=c1c2ccccc2nnn1CSc1ncnc2ccccc12	31	124	-10	i	0.84	-1.3	100
CCCN(CCC)C(=O)Cn1c(=O)c2sccc2n2c(=S)sc(-c3ccccc3)c12	.	.	-8	.	.	.	102
CCOC(=O)c1c(NC(=O)CSc2ccccc2C(=O)O)sc(C)c1C	.	.	-3	i	0.87	.	106
NC(=O)[C@@H]1CCCNc2c(I)cc([N+](=O)[O-])cc2C(=O)N[C@@H](CO)C(=O)N[C@@H](Cc2ccc(O)cc2)C(=O)N1	15	120	-6	i	1	-0.8	103
Cc1cc(C)c2c(CC(=O)NN(C)C)coc2c1	.	.	2	i	1.1	.	99
O=C1CC(C(=O)N(c2ccc(F)cc2)C(C(=O)NC2CCCC2)c2ccccn2)CS1 (stereo unspecified)	31	113	-12	i	0.86	-0.6	95
COc1cc(CN(C)Cc2ccccc2)cc(OC)c1O	0	102	-3	i	0.9	0.5	128
COc1ccc(CCNc2nc(-c3cccc(NC(C)=O)c3)cs2)cc1OC	6	132	-9	i	0.98	.	104
O=C(Nc1nnc(Cc2c[nH]c3ccccc23)s1)c1ccc(Cl)cc1Cl	-21	119	-12	i	1.1	-0.9	103
N#CCCN(Cc1cccnc1)S(=O)(=O)c1ccc(S(=O)(=O)NC2CCCCC2)cc1	.	.	-2	i	1.1	0.0	73
COc1ccc(Oc2ncccc2NC(=O)c2cccc(C)c2C)cc1	.	.	.	i	0.96	.	103
CCOc1cc(Br)ccc1S(=O)(=O)N1CC(C)OC(C)C1 (stereo unspecified)	14	68	1	i	0.93	-2.9	101
Cc1ccc(C(=O)CSc2nnc(CNc3ccc(F)cc3)o2)cc1	-48	123	5	i	0.94	.	107
O=C(NCc1cccnc1)c1ccc(CS(=O)(=O)c2ccc(Cl)cc2)o1	.	.	-4	i	1	-1.0	106
CCOC(=O)N=S(=O)(Oc1ccc([N+](=O)[O-])cc1)c1ccc(Cl)cc1 (stereo unspecified)	48	146	-4	i	0.94	-1.2	100
COC(=O)[C@@H]1C[C@@]2(O)[C@H](O)[C@H](O)[C@H](O)C[C@H]2N1Cc1ccccc1OS(=O)(=O)c1ccc(C)cc1	.	.	.	i	0.86	.	100
Cc1ccc(-c2noc(CCC(=O)NCCCN3CCN(c4cccc(Cl)c4)CC3)n2)cc1	-279	44	-5	i	0.83	-2.1	99
COc1ccc(N2CCN(CCNC(=O)CCNS(=O)(=O)c3cccs3)CC2)cc1	.	.	-5	i	1.1	-1.7	95
CCN(CC)CCCN1C(=O)C(O)=C(C(C)=O)C1c1cccc(OC)c1 (stereo unspecified)	7	126	-2	i	0.88	-2.3	107
CC(=O)N1CCN(C(=O)c2cccc(S(=O)(=O)Nc3ccc(C)cc3)c2)CC1	15	100	1	i	0.94	-0.4	98
CC(C)(C)c1cc(C(=O)NCc2ccccc2)ccn1	.	.	9	i	1.1	-1.5	116
CC(C#N)Sc1nnc(Nc2ccccc2)s1 (stereo unspecified)	.	.	-8	i	1	.	103
CCOC(=O)C1CCCN(c2cc(=O)n(Cc3ccc(F)cc3)c(=O)[nH]2)C1 (stereo unspecified)	20	100	-6	.	.	-1.2	113

Ordered by number of heavy atoms (falling): three of the compounds above
SMILES	Insulin prom inh	Insulin prom inh cell count	PKD1 inh	HSV augment	HSV augment primary fold	GALR2 ag	RGS16-Gao
O=C(COC(=O)Cc1ccc(S(=O)(=O)N2CCOCC2)s1)NCc1ccccc1	15	86	-2	i	1	-0.8	74
CCOC(=O)C1CCCN(c2cc(=O)n(Cc3ccc(F)cc3)c(=O)[nH]2)C1 (stereo unspecified)	20	100	-6	.	.	-1.2	113
CCOC(=O)N1CCN(C(=O)COc2ccc(Cl)cc2)CC1	26	133	2	i	0.86	-1.1	102

Next records follow:
SMILES	Insulin prom inh	Insulin prom inh cell count	PKD1 inh	HSV augment	HSV augment primary fold	GALR2 ag	RGS16-Gao
CNc1nc(N)c([N+](=O)[O-])c(Nc2cccc(Cl)c2)n1	.	.	.	i	0.89	.	96
CC(C)CC(=O)NN(C)c1nc(-c2ccccc2)nnc1C(F)(F)F	14	96	-4	i	0.88	-3.0	129
CCOC(=O)C(=CNc1cc(C)nn1-c1ccc(C)cc1)C(=O)OCC	-3	69	1	i	0.94	3.6	106
C/C(=N\NC(=O)C1CC1)c1ccc(NC(=O)c2ccc(Br)o2)cc1	.	.	3	i	1.1	.	96
OCc1nc2ccc(Cl)cc2[nH]1	.	.	.	i	1.1	.	104
C/C(=N\OC(=O)c1ccc(C)cc1)c1sc(C)nc1C	-29	116	-6	i	0.86	-2.2	103
